Screening data: PubChem BioAssay, National Center for Advancing Translational Sciences (NCATS)
Marburg entry inh: blocks Marburg virus binding to or entry into cells | Marburg virus pseudotyped entry inhibition, cell reporter; control for the full effect not named in the record; about a third of the inactives were read at about 46 µM | Potency, µM (doses to about 37.8 µM), for the others: top-dose activity change, negative = inhibition, usual class: inhibitors | actives 1.8% (n = 300,000); active = well fitted inhibition curve with a large enough effect; inconclusive = small, poorly fitted or top-dose-only effect, or effect the other way; inactive = flat fitted curve, though single readings scatter; tested in HEK293 cells; about a fifth of its hits are not listed in these tables; further: on the % scale 0 is the no-effect control and ±100 the full control effect; luciferase read-out
SARS PLpro yeast: inhibitors of SARS-CoV papain-like protease in yeast | actives 0.19% (n = 330,000) | AID 485353 | S. cerevisiae expressing SARS-CoV PLpro, growth rescue; control for the full effect not named in the record | Potency, µM (series often up to 32.9 µM), inactives show at the highest dose activity, positive = growth rescue; active means well fitted rising curve with a large enough effect; inconclusive means small, poorly fitted or top-dose-only effect; inactive means no such curve, though single readings can be large or run the other way; further: 0% is about no effect; nearly all actives have a fitted effect of over 55% in size; growth read by luminescence after 48 h
Lassa entry inh: blocks Lassa virus binding to or entry into cells | Lassa virus pseudotype entry inhibition, cell reporter; control for the full effect not named in the record | Potency, µM (top dose mostly 37.9 µM), without a hit: top-dose activity change, negative = inhibition, actives largely listed as inhibitors | actives 1.2% (n = 300,000); active means well fitted inhibition curve with a large enough effect; inconclusive means small, poorly fitted or top-dose-only effect, or effect the other way; inactive means flat fitted curve, though single readings scatter; tested in HEK293 cells; further: on the % scale 0 is the no-effect control and ±100 the full control effect; nearly all actives have a fitted effect of over 50% in size; luciferase read-out
NS1 inh: inhibitors of influenza NS1 protein function. S. cerevisiae slowed by influenza A NS1, growth recovery by OD600. Potency, µM (series often up to 46.1 µM), for inactives: top-dose activity, positive = more growth. actives 0.4% (n = 270,000). AID 2326; active means well fitted rising curve with a large enough effect; inconclusive means small, poorly fitted or top-dose-only effect; inactive means no such curve, though single readings can be large or run the other way; further: nearly all actives have a fitted effect of over 50% in size
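In this qHTS, NS1 from influenza A is expressed in budding yeast, where it slows growth. Cells are switched from glucose to 2% galactose medium (pH 6.0, -URA), treated with compound, and growth recovery is read at OD600.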
RE007 growth inh: less growth of the S. pombe RE007 Vpr strain; S. pombe RE007 Vpr strain, BacTiter-Glo ATP luminescence, 24 h; control for the full effect not named in the record; Potency, µM (titrated, usually from 92.2 µM), inactives show top-dose activity change, negative = less growth; actives 0.21% (n = 360,000); AID 651644; active = well fitted falling curve with a large enough effect; inconclusive = small, poorly fitted or top-dose-only effect; inactive = no such curve, though single readings can be large or run the other way;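 further: on the % scale 0 is the no-effect control and ±100 the full control effect; nearly all actives have a fitted effect of over 50% in size; the assay follows cell death caused by Vpr and the record does not say whether a fall means rescue or toxicity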
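Fission yeast RE007 carrying one integrated HIV-1 vpr copy, seeded at OD 0.01 in PMG+AL medium with 23 nL pinned compound. Grown 24 h at 30 degrees; viability read by BacTiter-Glo luminescence after 5 min.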
Cruzain inh Det: inhibitors of Trypanosoma cruzi cruzain with detergent; purified cruzain, Z-FR-AMC fluorescence, 0.01% Triton; Potency, µM, inactives show max response, negative = inhibition, hits mostly inhibitors; P25779; actives 0.43% (n = 200,000);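 further: plate controls were neutral wells for no effect and buffer without enzyme for full effect; nearly all actives have a fitted effect of over 40% in size; top concentration of the series not given in the record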
Target sequence (P25779 123-467 limits assumed): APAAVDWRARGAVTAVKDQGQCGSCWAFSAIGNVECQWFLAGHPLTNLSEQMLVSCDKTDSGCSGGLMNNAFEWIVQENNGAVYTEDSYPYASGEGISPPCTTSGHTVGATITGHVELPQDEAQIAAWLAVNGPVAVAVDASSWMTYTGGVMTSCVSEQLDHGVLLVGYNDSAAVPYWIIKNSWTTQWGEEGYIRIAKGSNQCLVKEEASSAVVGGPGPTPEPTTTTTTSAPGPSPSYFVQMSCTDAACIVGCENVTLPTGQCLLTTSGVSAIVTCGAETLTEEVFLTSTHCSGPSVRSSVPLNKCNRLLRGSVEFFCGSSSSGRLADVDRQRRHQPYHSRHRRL
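Cysteine protease activity tested under reducing, mildly acidic conditions (100 mM sodium acetate pH 5.5, 5 mM DTT) plus 0.01% Triton X-100. Cruzain 1.5 nM; substrate Z-FR-AMC 2 uM; 15 min compound preincubation at room temperature.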
Cruzain inh noDet: cruzain (T. cruzi) inhibition without detergent; P25779; purified cruzain, Z-FR-AMC fluorescence, no detergent; Potency, µM, without a hit: max response, negative = inhibition, usual class: inhibitors; actives 2.3% (n = 200,000); AID 1476;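 further: plate controls were enzyme without inhibitor for no effect and buffer without enzyme for full effect; nearly all actives have a fitted effect of over 40% in size; top concentration of the series not given in the record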
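Purified cruzain at 1.5 nM, pre-incubated 15 min with compound at room temperature in 100 mM sodium acetate pH 5.5, 5 mM DTT, 0.00005% Triton X-100. Reaction started with 2 uM Z-FR-AMC; AMC fluorescence increase over 60 s gives rate.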
2A StopGo: FMDV 2A StopGo reporter, luciferase signal; Potency, µM (top dose mostly 57.9 µM), without a hit: at the top dose signal change, negative = less light; human cells with a luciferase reporter of 2A StopGo recoding; control for the full effect not named in the record; actives 1.2% (n = 410,000); active = well fitted falling curve with a large enough effect; inconclusive = small, poorly fitted or top-dose-only effect; inactive = no such curve, though single readings can be large or run the other way; tested in HEK293T cells; further: on the % scale 0 is the no-effect control and ±100 the full control effect; nearly all actives have a fitted effect of over 45% in size; luciferase light after 4 h
* marks the source's active call; other numbers are inactive results; ? = inconclusive; / = no result given; [ ] = remark or other dose. Unless noted, the call rests on the fitted dose curve; in most records, active means well fitted curve in the direction sought with a large enough effect; inconclusive means small, poorly fitted or top-dose-only effect, or another doubt; inactive means no such curve, though single readings can be large; an effect the other way counts as inactive or inconclusive. Potency means the concentration at half of the fitted maximal effect. Compounds were not picked by outcome; any-hit rate near 4.7%.

cpd	canonical_smiles	Marburg entry inh	SARS PLpro yeast	Lassa entry inh	NS1 inh	RE007 growth inh	Cruzain inh Det	Cruzain inh noDet	2A StopGo
1	CCC(C)c1ccccc1NC(=O)c1cccnc1 (stereo unspecified)	2%	1%	5%	-1%	-9%	-0.1%	2%	-4%
2	CCOC(=O)C(=CNc1ccc(NC2=NCC(C)S2)cc1)C(=O)OCC (stereo unspecified)	?	-1%	?	-4%	/	-8.4%	-12%	-14%
3	COc1ccc(N(CC(=O)Nc2cccc(F)c2)S(=O)(=O)c2c(C)[nH]c(=O)[nH]c2=O)cc1	/	-1%	/	-4%	5%	/	/	12%
4	CCC(C)OC(=O)C[N+](C)(C)CCOC1CC2CCC1(C)C2(C)C (stereo unspecified)	?	1%	?	2%	-1%	/	/	-20%
5	O=C(NCCc1ccccc1)c1ccc2c(c1)N(Cc1ccc(F)cc1)C(=O)CS2	/	/	-22%[46.1 µM]	/	/	1.1%	-13%	?
6	Cc1cccc(C)c1N1CCN(S(=O)(=O)c2ccccc2)CC1	/	-1%	/	3%	-17%	/	/	-29%
7	COC(c1ccccc1)c1nnc(CCC(=O)N(C)Cc2cccc(-n3cccn3)c2)o1 (stereo unspecified)	/	-1%	/	-6%	-3%	/	/	17%
8	Cc1ccc([N+](=O)[O-])c(C(=O)N/N=C/c2cccs2)c1	/	2%	/	-11%	7%	/	/	51%[activator]
9	CCCCn1c(=O)[nH]c(=O)c2c1nc(-c1cc(Br)ccc1OC)n2C	7%[46.1 µM]	-11%	-13%	11%	5%	/	/	13%
10	CCN(CC)C(=O)c1ccc(Cn2cc([N+](=O)[O-])cn2)o1	/	1%	/	3%	-11%	/	/	0%
11	COCc1ccc(CN2CCC(N3CCC(C(=O)N4CCCC4)CC3)CC2)o1	/	0%	/	3%	-5%	/	/	0%
12	COc1cccc(C(=O)NC(=NCCc2c[nH]c3ccc(OC)cc23)Nc2nc(C)cc(C)n2)c1	?	/	?	/	/	-1.5%	-23%	-13%
13	COc1ccc(C(=O)CCN2CCC(C)CC2)cc1	/	-2%	/	0%	?	/	/	0%
14	COC(=O)c1ccccc1NC(=O)c1cc2nc(-c3ccccc3)cc(-c3ccccc3)n2n1	29%[46.1 µM]	/	24%[46.1 µM]	/	/	-1.0%	4%	-18%
15	Cc1ccc(NC(=O)Cn2c(=O)n(CCc3ccccc3)c(=O)c3c4c(sc32)CCCC4)c(C)c1	?	/	29%[46.1 µM]	/	/	-0.7%	-4%	-6%

An excerpt from above, reduced to RE007 growth inh, Lassa entry inh and SARS PLpro yeast.
# | SMILES | RE007 growth inh | Lassa entry inh | SARS PLpro yeast
2 | CCOC(=O)C(=CNc1ccc(NC2=NCC(C)S2)cc1)C(=O)OCC (stereo unspecified) | / | ? | -1%
3 | COc1ccc(N(CC(=O)Nc2cccc(F)c2)S(=O)(=O)c2c(C)[nH]c(=O)[nH]c2=O)cc1 | 5% | / | -1%

Additional entries
cpd	canonical_smiles	Marburg entry inh	SARS PLpro yeast	Lassa entry inh	NS1 inh	RE007 growth inh	Cruzain inh Det	Cruzain inh noDet	2A StopGo
16	Cc1cc(C)cc(-n2ccnc2SCC(=O)Nc2nnc(C)s2)c1	/	/	-21%[46.1 µM]	/	/	0.5%	-2%	0%
17	CC1CCN(C(=O)Cc2nn(C)c(=O)c3ccccc23)CC1	7%	8%	9%	3%	7%	3.7%	7%	-25%
18	COc1ccc(/C(C)=C2\SC(=S)N(CCC(=O)O)C2=O)cc1	-5%	2%	1%	-45%	-13%	-3.2%	2%	-20%
19	COc1ccccc1C(=O)Nc1ccc(S(=O)(=O)N2CCC(C)CC2)cc1	11%[46.1 µM]	0%	-27%	7%	-20%	/	/	-18%
20	Cc1cc(C)n2nc(SCC(=O)N3CCC(C)CC3)nc2n1	-14%	-1%	22%	/	10%	/	/	-5%
21	O=c1c2c3c(sc2nc2n1CCC2)CCCC3	2%	-3%	/	-2%	?	/	/	3%
22	O=C(Nc1ccc(CN2CCOCC2)cc1)c1ccc(N2CCCC2)c([N+](=O)[O-])c1	-21%[46.1 µM]	0%	0%	5%	-28%	/	/	0%
23	CCOc1ccc(NC(=O)CN(Cc2ccccc2)S(=O)(=O)c2ccc(Cl)cc2)cc1	/	/	-13%[46.1 µM]	/	/	-6.1%	9%	5%
24	CCOc1ccc(OCC)c(NC(=O)CN(C)S(=O)(=O)c2cnc[nH]2)c1	11%	-1%	-1%	0%	-8%	3.3%	5%	-21%
25	CCOC(=O)N1CCN(C(=O)c2ccc(Cl)c(S(=O)(=O)N3CCCC3)c2)CC1	-13%	?	-5%	-7%	3%	/	/	-1%
26	OCCC1CN(CC#Cc2ccccc2)CCN1C1CCCC1 (stereo unspecified)	1%[46.1 µM]	0%	-22%[46.1 µM]	0%	-12%	/	/	-13%
27	Fc1ccc(NC(=S)N2CCCC2)cc1Cl	?	4%	-1%	6%	2%	-3.4%	1%	0%
28	CCC(C)C12CN3CCN(CC(C)(C3)C1O)C2 (stereo unspecified)	19%[46.1 µM]	0%	-3%[46.1 µM]	1%	37%	/	/	3%
29	CSc1nc2nc3c(c(=O)n2[nH]1)CN(Cc1ccccc1)CC3	0%	-19%	6%	-15%	4%	-1.9%	-11%	23%
30	CCS(=O)(=O)N1CCC(C(=O)Nc2cccc(F)c2)CC1	/	-4%	/	11%	0%	/	/	5%

Entries by screen from the list:
Nos. 21 to 30 in RE007 growth inh: ?, -28%, /, -8%, 3%, -12%, 2%, 37%, 4%, 0%

Quoted from the listing:
For Marburg entry inh, no. 20 is listed with -14%
For Cruzain inh Det, no. 16 is listed with 0.5%
For RE007 growth inh, no. 18 is listed with -13%
For Lassa entry inh, no. 28 is listed with -3%[46.1 µM]
For Cruzain inh Det, no. 24 is listed with 3.3%
For RE007 growth inh, no. 19 is listed with -20%

Other compounds follow:
cpd	canonical_smiles	Marburg entry inh	SARS PLpro yeast	Lassa entry inh	NS1 inh	RE007 growth inh	Cruzain inh Det	Cruzain inh noDet	2A StopGo
31	CCN1CCN(c2cc(C)c3cc(NC(=O)c4cccc(C(F)(F)F)c4)ccc3n2)CC1	?	/	1%[46.1 µM]	/	/	-6.4%	-7%	-19%
32	CCN(CC)S(=O)(=O)c1ccc(N2CCOCC2)c(NC(=O)Cc2ccccc2F)c1	-8%	-2%	?	-18%	-3%	-2.5%	12%	0%
33	Cc1ccc(NS(=O)(=O)c2cccs2)cc1S(=O)(=O)N1CCCCCC1	10µM*	-1%	9%	/	14%	/	/	5%
34	COc1cc(S(=O)(=O)NCC2CCCO2)ccc1Br (stereo unspecified)	-7%	6%	-8%	2%	-5%	1.8%	8%	104%[activator]
35	Cc1ccccc1-n1nnnc1SCC(=O)NC1CC1	-3%[46.1 µM]	-5%	1%[46.1 µM]	/	13%	/	/	-9%
36	COc1cccc(N(C(=O)Cn2nnc(-c3cccs3)n2)C(C(=O)NC(C)C)c2ccc(C)o2)c1 (stereo unspecified)	?	-2%	-10%	-3%	-4%	8.3%	-23%	7%
37	CN(C)c1c(N)c(=O)oc2ccccc12	/	0%	/	3%	10%	/	/	-1%
38	c1ccc2sc(N3CCCN(Cc4nc(-c5cnccn5)no4)CC3)nc2c1	?	0%	9%[46.1 µM]	-9%	3%	/	/	-19%
39	CC(=O)Nc1ccc(OCCC[n+]2cccc(C(=O)[O-])c2)cc1	7%[46.1 µM]	2%	2%[46.1 µM]	/	62%	/	/	-6%
40	Cc1ccc2cc(CN(Cc3ccco3)S(=O)(=O)c3c(C)ccc4nsnc34)c(=O)[nH]c2c1	?	-8%	?	-27%	-11%	-14%	?	-8%
41	COc1ccc(OC)c(NC(=O)c2ccc3c(c2)CCN3S(C)(=O)=O)c1	/	-1%	/	-7%	-2%	/	/	-25%
42	CCOc1ccccc1NC(=O)CSc1nnc2ccc(-c3cccnc3)nn12	-26%[46.1 µM]	0%	16%	/	1%	/	/	-2%
43	Cc1nc(N2CCOCC2)c2c(C(=O)N3CCN(c4cccc(C)c4C)CC3)c(C)oc2n1	/	/	-8%[46.1 µM]	/	/	9.5%	?	-21%
44	CCOC(=O)C1(CC2CC2)CCN(Cc2cn(C)c3ccccc23)CC1	?	0%	?	-7%	-1%	/	/	-20%
45	COc1ccc(OC)c(CCNC(=O)CC2(CC3=NS(=O)(=O)c4ccccc4N3)CCCC2)c1	/	6%	/	0%	-1%	/	/	-14%

New compounds follow:
cpd	canonical_smiles	Marburg entry inh	SARS PLpro yeast	Lassa entry inh	NS1 inh	RE007 growth inh	Cruzain inh Det	Cruzain inh noDet	2A StopGo
46	CCOC(=O)c1c(CSc2cccs2)n(C)c2cc(Br)c(O)c(CN(C)C)c12	?	0%	?	8%	-14%	/	/	?
47	CCOc1ccccc1N1CCN(Cc2ccco2)CC1	11%	6%	-24%	6%	12%	4.7%	0%	/
48	Cc1ccc(N2C(=O)c3ccccc3C2=O)cc1	4%	-2%	13%	-2%	1%	/	/	73%[activator]
49	CCO[C@@H]1OC(C(=O)NCc2nc3ccccc3[nH]2)=C[C@H](c2csc3ccccc23)[C@H]1CCCO	/	0%	/	-5%	-10%	/	/	?
50	O=C(CCCn1c(=O)c2cccn2c2ccc(F)cc21)NCc1ccc(Cl)cc1	/	/	-5%[46.1 µM]	/	/	0.0%	2%	-9%

In a second layout: two of the compounds above
12. COc1cccc(C(=O)NC(=NCCc2c[nH]c3ccc(OC)cc23)Nc2nc(C)cc(C)n2)c1
  Marburg entry inh: ?
  SARS PLpro yeast: /
  Lassa entry inh: ?
  NS1 inh: /
  RE007 growth inh: /
  Cruzain inh Det: -1.5%
  Cruzain inh noDet: -23%
  2A StopGo: -13%

13. COc1ccc(C(=O)CCN2CCC(C)CC2)cc1
  Marburg entry inh: /
  SARS PLpro yeast: -2%
  Lassa entry inh: /
  NS1 inh: 0%
  RE007 growth inh: ?
  Cruzain inh Det: /
  Cruzain inh noDet: /
  2A StopGo: 0%
